hNpr1 antagonist = blocks ANP-stimulated signaling of human Npr1 receptor | P16066 | HEK293 hNpr1 GloSensor cGMP, ANP-stimulated luminescence | Potency, µM (top dose mostly 46.3 µM), for the others: at the top dose activity change, negative = inhibition, usual class: inhibitors | 76,000 compounds, 1.6% hits | AID 1347048; active = well fitted inhibition curve with a large enough effect; inconclusive = small, poorly fitted or top-dose-only effect; inactive = no such curve, though single readings can be large or run the other way;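 also: nearly all actives have a fitted effect of over 60% in size; nearly all hits also lower the signal before the agonist is added; a reference antagonist and vehicle were the controls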
Target sequence (P16066 whole entry, looked up): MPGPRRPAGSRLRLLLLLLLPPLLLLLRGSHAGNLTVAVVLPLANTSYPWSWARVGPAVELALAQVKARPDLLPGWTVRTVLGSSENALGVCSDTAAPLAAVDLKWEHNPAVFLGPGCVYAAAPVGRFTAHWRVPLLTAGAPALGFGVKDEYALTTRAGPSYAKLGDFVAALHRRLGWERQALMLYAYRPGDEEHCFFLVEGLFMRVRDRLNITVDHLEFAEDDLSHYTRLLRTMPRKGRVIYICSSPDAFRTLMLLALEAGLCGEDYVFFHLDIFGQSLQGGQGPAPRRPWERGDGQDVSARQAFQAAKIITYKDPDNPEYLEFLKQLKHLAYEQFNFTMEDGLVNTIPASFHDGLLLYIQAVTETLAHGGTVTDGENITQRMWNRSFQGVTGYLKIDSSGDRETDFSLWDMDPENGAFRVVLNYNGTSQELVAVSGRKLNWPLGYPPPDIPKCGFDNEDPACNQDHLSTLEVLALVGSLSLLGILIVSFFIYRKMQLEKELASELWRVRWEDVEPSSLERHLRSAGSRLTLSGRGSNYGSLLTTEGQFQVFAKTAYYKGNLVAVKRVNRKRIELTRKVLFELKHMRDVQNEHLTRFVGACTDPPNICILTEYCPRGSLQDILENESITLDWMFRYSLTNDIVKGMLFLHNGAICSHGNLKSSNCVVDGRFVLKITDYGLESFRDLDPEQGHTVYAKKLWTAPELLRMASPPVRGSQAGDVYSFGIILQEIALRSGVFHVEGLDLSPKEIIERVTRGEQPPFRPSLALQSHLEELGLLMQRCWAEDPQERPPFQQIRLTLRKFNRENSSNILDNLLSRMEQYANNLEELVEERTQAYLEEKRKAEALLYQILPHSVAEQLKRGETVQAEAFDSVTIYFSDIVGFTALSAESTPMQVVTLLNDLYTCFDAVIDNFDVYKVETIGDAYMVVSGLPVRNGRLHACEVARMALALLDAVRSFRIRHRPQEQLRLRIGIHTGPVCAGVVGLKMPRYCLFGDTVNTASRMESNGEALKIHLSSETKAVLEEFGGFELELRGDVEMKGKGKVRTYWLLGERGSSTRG
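Compound pre-incubated 30 min at room temperature on GloSensor-loaded HEK293 cells stably carrying hNpr1 and the pGS-40F cGMP biosensor. Stimulation uses hNppA at 0.1 nM final; luminescence is taken at baseline and 20 min post-agonist.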
The depositor's hits bear a star; ? = inconclusive; [ ] = dose if it differs, or a comment. % is scaled to controls: 0 for no effect and ±100 for the full control effect; potency is read from the fitted curve at half-maximal effect.

smiles,hNpr1 antagonist
O=C(NC1CCCCCCC1)c1ccc(Cn2ccn3nc4c(c3c2=O)CCCC4)cc1,-18.0%
Cc1ccn(CC(=O)N2CCC(C3CCN(S(C)(=O)=O)CC3)C2)n1 (configuration not stated),2.7%
CC1(C)C(=O)NC(=O)N1CC(=O)N1CCCC(CCc2c(F)cccc2F)C1 (configuration not stated),-2.3%
Cc1noc(C)c1C(=O)N1CCCCC1c1nc(CCOCC2CCCC2)no1 (configuration not stated),-16.2%
COC(=O)C1=CN(CC(=O)Nc2ccccc2F)S(=O)(=O)N=C1C,2.3%
O=C(c1ccco1)N1CCC(c2n[nH]c(=O)n2-c2ccccc2)CC1,10.6%
O=C1Cc2c(-c3ccccc3Cl)n[nH]c2CN1CC1CCOCC1,-0.3%[70.6 µM]
CCc1nn(-c2ccc(OC)cc2)c(Oc2ccccc2F)c1CCC(=O)NCC1CC1,-12.9%
Cc1ccc(C(=O)N2CCCN(Cc3ccncc3)C(c3ccccc3)CC(=O)NCC2)cn1 (configuration not stated),-3.5%
CCc1noc(-c2cn(C3CCN(C(=O)c4ccc(C)cc4)C3)nn2)n1 (configuration not stated),-13.9%
O=C(NCCc1ccccc1)C1CC(=O)N(c2n[nH]c3ccccc23)C1 (configuration not stated),-1.4%
CCc1cnc(N)nc1N1CCC(Oc2ccc(F)cc2)CC1,-15.4%
CC[C@H]1CN(S(=O)(=O)c2c(C)noc2C)CC[C@H]1CC(=O)NCc1ccco1,-20.7%[70.6 µM]
Nc1nc(C2CC(N)C2)cc(N2CCN(C3CCCC3)C(=O)C2)n1 (configuration not stated),0.8%
CC[C@@H](NC(C)=O)C(=O)N1CCOc2c(cc(-c3cccs3)cc2OC)C1,2.2%
CN(C1CCc2nn(CC3CC3)c(=O)n2CC1)S(C)(=O)=O (configuration not stated),9.5%
COc1ccc(-c2cc(-c3ccc([S+](C)(=O)[O-])cc3)cn3cncc23)cc1,-17.4%[70.6 µM]
COc1ccc(CN[C@@H]2CCC[C@@H](C(=O)NC3CCOCC3)CC(=O)N(C)C2)cc1,3.2%[70.6 µM]
O=C(NC1CCN(c2cc(-c3ccc(Cl)cc3)[nH]n2)CC1)c1cccc(F)c1,2.4%
NC(=O)CCn1cc(CN(CCO)Cc2ccccc2F)c2ccccc21,1.5%
CCc1ccccc1NC(=O)Cn1c(N2CCOCC2)nc(COC)cc1=O,-0.8%
CCNc1nccc(N2CCC(CC(=O)NCC(C)C)CC2)n1,-6.9%
CC(C)NC(=O)Nc1ccc([C@H]2OCC(=O)N(C3CCOCC3)[C@@H]2CO)cc1,8.5%[70.6 µM]
COc1ccc(C(=O)N2CCCCCCNC(=O)[C@@H]3CCCC[C@@H]32)c(OC)n1,5.6%
COc1ccc(Cl)cc1C(=O)NC1CCN(c2cc(-c3ccc(F)cc3)[nH]n2)C1 (configuration not stated),-12.0%
CCCn1c(C)cnc1CC1CCN(C(=O)NCCc2ccccc2)CC1,2.0%
CN1N=C(C(=O)N2CCC(CCC(=O)Nc3ccc4c(c3)OCCO4)CC2)CCC1=O,2.0%
COc1ccc(-c2onc(C)c2C(=O)NCc2ccccc2)cc1,-0.4%
CCC1(N2CCN(S(=O)(=O)c3ccc(Cl)s3)CC2)CCN(S(C)(=O)=O)C1 (configuration not stated),0.7%
O=C([C@@H]1C[C@@H](O)[C@H](O)[C@@H]2NC(=S)N(c3ccc4c(c3)OCO4)[C@@H]21)N1CCOCC1,-11.6%[70.6 µM]
COc1ccc(S(=O)(=O)N2CCc3nn(CC4CC4)c(=O)n3CC2)cc1Cl,-1.3%
COc1ccc(CCC(=O)N2CCC3(CC2)NC(=O)N(c2cccc(F)c2)N3)cc1,5.1%
Cc1nc2cc(N3CCC(C(=O)NCCC4=CCCCC4)CC3)cnc2nc1C,-3.1%
CN(C(=O)Cn1nc2n(c1=O)CCCCC2)C1CCCCC1,5.7%
Cc1nc(C(C)C)sc1C(=O)N1CCC(Cc2ccc(C(=O)O)cc2)C1 (configuration not stated),2.7%
COc1ncccc1-c1cc2c(ccn2Cc2ccncc2)c(N2CCOCC2)n1,-9.2%[70.6 µM]
Cn1cccc1C(=O)N1CCCC(n2cc(-c3nc(-c4ccccc4)no3)nn2)C1 (configuration not stated),?
O=C(CCC1CCN(C(=O)c2ccccc2)CC1)N1CCOCC1,-1.9%
CC(C)CN[C@H]1[C@H](O)[C@@H](N2CCC(Cc3ccccc3)CC2)[C@@H]2OC[C@H]1O2,2.9%[70.6 µM]
O=C(CC1C=CS(=O)(=O)C1)N1CCn2nc(Cc3ccccc3)cc2C1 (configuration not stated),3.3%
O=C1NCCOCCN(C(=O)c2nccc3ccccc23)[C@H]2CCC[C@@H]12,-3.2%
Cc1cn2nc(-c3nc(C4CCCN(C(=O)Cc5ccc(F)cc5)C4)no3)cc2c(=O)[nH]1 (configuration not stated),-7.1%
Cc1ccccc1CNC(=O)CCC[C@H]1NC[C@@H]2C[C@H]1CN(Cc1ccccc1)C2,-15.4%
Cc1nonc1CC(=O)N1C[C@@H](NS(=O)(=O)N(C)C)[C@H](C(C)C)C1,-2.9%
O=C(NCc1ccco1)C1CC(c2ccccc2)CN(C(=O)c2ccc(F)cc2)C1 (configuration not stated),-15.7%
Cn1c(CO[C@H]2CN(S(=O)(=O)Cc3ccccc3)C[C@H]2F)nc2ccccc21,-4.6%[70.6 µM]
CN1c2cc(C(=O)Nc3cccc(OC(F)(F)F)c3)ccc2C(=O)N2CCCC21 (configuration not stated),-4.6%
CC(C)c1ccc(CC(=O)N2CCCc3ncc(C(=O)N4CCCC[C@@H]4c4ccccc4)cc32)cc1,-21.6%
NC(=O)[C@H](Cc1ccc(O)cc1)NC(=O)C1=C[C@@H](NC(=O)c2cccnc2)[C@@H](O)[C@H](O)C1,-8.1%
Cc1ccc(NC(=O)N2CCCCCCNC(=O)CC2c2ccccc2)cc1C (configuration not stated),3.5%

Additional structures:
smiles,hNpr1 antagonist
O=C(Cc1ccccc1)N1CCC(c2n[nH]c(=O)n2-c2ccccc2)CC1,-19.8%
O=C(c1ccc(F)cc1)N1CCC(Oc2ccccc2)C1 (configuration not stated),-0.3%
COc1ccc(C(=O)N2CCCCCCN(C)C(=O)[C@@H]3CCC[C@@H]32)cc1F,-1.5%
CCOC(=O)c1ccc(NC(=O)Cn2cccc2-c2nc(-c3ccc(OC)c(F)c3)no2)cc1,-8.8%
N#Cc1ccc(C(=O)Nc2ccc([C@@H](O)[C@H]3COCC(=O)N3)cc2)cc1,1.8%[70.6 µM]
O=C(NC1CCN(c2cc(-c3ccc(Cl)cc3)[nH]n2)C1)c1cccnc1 (configuration not stated),-23.2%
COc1ccccc1CC(=O)N1CCN(C(=O)c2nnn3c2COC(c2ccc(C)cc2)C3)CC1 (configuration not stated),10µM*
Cc1ncncc1C(=O)N1CCCC(c2nnc(Cn3cccn3)n2C)C1 (configuration not stated),5.1%
c1ccc(-c2ccnc(NCC3OCCc4ccccc43)n2)nc1 (configuration not stated),-10.7%
O=S(=O)(NCCc1noc(-c2ccccc2)n1)c1ccc(Cl)cc1,?
COc1ccc(N2C(=O)CSC23CCN(C(=O)c2cccc(OC)c2)CC3)cc1,1.7%
O=C(c1ccccc1F)N1CCC2(CC1)CC(N(Cc1ccccc1)C1CC1)CCO2 (configuration not stated),-16.8%
CC(=O)Nc1ccc(NC(=O)Cn2cccc2-c2nc(-c3ccc(F)cc3)no2)cc1,-7.5%
Cc1ccc(S(=O)(=O)Nc2ccc(C)n(CC(=O)NCc3ccccc3)c2=O)cc1,4.3%
O=C(Cn1c(=O)oc2ccccc21)N1CCCC(Cc2noc(-c3ccncc3)n2)C1 (configuration not stated),7.7%
COc1ccc(NC(=O)O[C@@H]2C=C[C@H](c3c(C)nn(-c4ccc(F)cc4)c3C)C2)cc1,-29.6%[70.6 µM]
CC(C)c1cccc(NC(=O)Cn2cccc2-c2nc(-c3ccc4c(c3)OCO4)no2)c1,-3.4%
CCOC(=O)C1=C(C)N=C2SC=C(CC(=O)NCC3CCCO3)N2C1c1ccc(C)cc1C (configuration not stated),?
CCCC[C@H](N)C(=O)N1CCC2(CC1)CC(=O)N(Cc1cc(F)cc(F)c1)C2,1.7%
COc1ccccc1C(=O)NCCn1ccn2nc(-c3ccc(C)cc3C)cc2c1=O,-25.9%
COCC(=O)N[C@H]1C[C@@H](CO)N(Cc2ccccc2Br)C1,-2.7%
COc1ccc(CNC(=O)NC2CCc3nnc(C4CC4)n3CC2)cc1 (configuration not stated),2.9%
COc1cccc(CC(=O)N2CCCC(c3noc(COc4ccccc4)n3)C2)c1 (configuration not stated),?
CCOc1ccc(CN2CC[C@@](C)(O)[C@H](N3CCCC3)C2)cc1,0.2%
CN1CCN(Cc2cn3c(=O)n(C)cc(-c4cccc(N(C)C)c4)c3n2)CC1,0.6%[70.6 µM]

(further entries)
smiles | hNpr1 antagonist
CC(=O)c1ccc(NC(=O)N2C[C@@H]3C[C@H](C2)c2ccc(NC(=O)c4cccs4)c(=O)n2C3)cc1 | -2.0%
O=C1CC2(CCN([S+](=O)([O-])c3cccc(C(F)(F)F)c3)CC2)Oc2cc(Cl)ccc21 | -0.2%
Cc1cc(C(=O)Nc2ccc([C@H]3OCC(=O)N(Cc4cccnc4)[C@@H]3CO)cc2)c(C)o1 | 2.0%
Cc1ccc(-n2nc3n(c2=O)CCN(C(=O)C2CCCC2)C3)cc1 | -13.8%[70.6 µM]
COc1ccccc1C(=O)N1CCCC(c2nn(-c3ccc(Cl)cc3)c(=O)[nH]2)C1 (configuration not stated) | -6.3%
CC(C)N1CCN(C(=O)c2cc3n(n2)CC(c2ccc(Br)cc2)OC3)CC1 (configuration not stated) | ?
CC(=O)N[C@@H]1Cc2ccccc2[C@H]1n1ccnc1-c1cc2n(n1)CCNC2 | 2.9%
Cc1ccc(-c2nc(C(=O)NCCc3ccc(S(N)(=O)=O)cc3)no2)cc1 | -9.4%
Cc1cc(C)c(S(=O)(=O)N2CC(c3nc(-c4ccncc4)no3)C2)cc1C | -30.0%
O=C(Cc1cccc(Cl)c1)N[C@@H]1CN(c2ncccn2)C[C@H]1CO | -6.4%
Cc1cnc(C(=O)N2CCC3(CC2)c2[nH]c4ccccc4c2CCN3C)cn1 | 0.6%
CCn1c(CN(C)C)nnc1C1CCN(C(=O)c2cnn3ccccc23)CC1 | 4.3%
Cc1cnn(CCC(=O)N2CCCn3ccnc3C2c2cnn(C)c2)c1 (configuration not stated) | 2.2%
CCc1cccc(NC(=O)N2CCCC(c3noc(COc4ccccc4F)n3)C2)c1 (configuration not stated) | 7.3%
CC(C)N1C(=O)CO[C@H](c2ccc(NC(=O)c3ccco3)cc2)[C@H]1CO | -0.6%[70.6 µM]
O=C(NC1CC1)c1ccc(-c2ccc(N3CCCCCC3)nc2)cc1 | -19.0%
COCc1cn(C[C@H]2C[C@@H](NC(=O)c3ccccc3)[C@H](O)[C@@H]2O)nn1 | -9.0%[70.6 µM]
O=C(Cn1nc2c(cc1=O)CCCC2)NCCn1ccc2ccc(Cl)cc21 | 5.8%
COc1ccccc1-c1noc(CCC(=O)NCc2snnc2C)n1 | 2.4%
O=C1c2cnc(-c3cccc(O)c3)nc2OCCN1c1cccc(C(F)(F)F)c1 | -23.4%[70.6 µM]
O=C(c1cnc[nH]1)N1C[C@@H](COc2cccnc2)[C@H](c2ccccn2)C1 | 2.3%
Cn1ccnc1CN1C[C@@H](F)[C@@H](OCc2nc3ccccc3n2C)C1 | 1.8%[70.6 µM]
NS(=O)(=O)c1ccc(-n2nc(C3CCOC3)nc2C2CCC2)cc1 (configuration not stated) | -1.0%
CC(C)(C)CC(=O)N1CCC(O)(c2csc(CN3CCc4ccccc4C3)n2)CC1 | -20.8%[70.6 µM]
CCOC(=O)C1=CN(CC(=O)N(C)c2ccccc2)S(=O)(=O)N=C1C | 4.9%
OC[C@@H]1CNC[C@H]1C1CCN(Cc2ccc(F)c(Br)c2)CC1 | 7.1%
COc1ccc(CN2CCc3nc(C(=O)NCCOc4ccccc4)oc3CC2)cn1 | ?
CN(C)C[C@@H]1CN(Cc2ccccc2)C[C@H]1NC(=O)c1ccnn1C | 2.0%
O=C(CN1C(=O)NC(c2ccccc2Cl)C2=C1COC2=O)NCc1ccc(F)cc1 (configuration not stated) | 2.7%
O=C1CCN(S(=O)(=O)c2ccccc2)CCCN(S(=O)(=O)c2ccc3c(c2)CCC3)CCN1 | 4.5%
COc1ccc2[nH]cc(CCNC(=O)C3(Cc4cccnc4)CCCCC(=O)N3)c2c1 (configuration not stated) | -10.3%
Cc1cc(NC(=O)c2ccc3c(c2)N(C)C2CCCN2C3=O)ccc1Br (configuration not stated) | -6.0%
CC(C)NC(=O)N1CCCC1c1noc(COc2ccc(F)cc2)n1 (configuration not stated) | 5.5%
Cc1nc(CN2C[C@H](C(=O)N3CCN(c4ccccn4)CC3)C[C@@H]2c2ccc(F)cc2)cs1 | -18.0%

Among those listed so far, 5 contain a furan ring, fused or not:
smiles | hNpr1 antagonist
O=C(c1ccco1)N1CCC(c2n[nH]c(=O)n2-c2ccccc2)CC1 | 10.6%
CC[C@H]1CN(S(=O)(=O)c2c(C)noc2C)CC[C@H]1CC(=O)NCc1ccco1 | -20.7%[70.6 µM]
O=C(NCc1ccco1)C1CC(c2ccccc2)CN(C(=O)c2ccc(F)cc2)C1 (configuration not stated) | -15.7%
Cc1cc(C(=O)Nc2ccc([C@H]3OCC(=O)N(Cc4cccnc4)[C@@H]3CO)cc2)c(C)o1 | 2.0%
CC(C)N1C(=O)CO[C@H](c2ccc(NC(=O)c3ccco3)cc2)[C@H]1CO | -0.6%[70.6 µM]

The list is partial; rates above refer to the full screens.
